Source: PubChem (Broad Institute)
AF4-AF9 inh: inhibitors of human MLL-AF4/AF9 interaction | actives 0.47% (n = 350,000) | AlphaScreen, biotin-AF4 peptide binding to FLAG-AF9 | P42568 | inhibition, % at 10 µM;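 active means every replicate reaching a set inhibition limit, whatever the replicate mean, cut at about 25% in these data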;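 further: 0% = plate neutral control median and 100% = total signal loss; the record names both 10 and 1 µM as test concentration; the first replicate is given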
Target sequence (P42568 whole entry, looked up): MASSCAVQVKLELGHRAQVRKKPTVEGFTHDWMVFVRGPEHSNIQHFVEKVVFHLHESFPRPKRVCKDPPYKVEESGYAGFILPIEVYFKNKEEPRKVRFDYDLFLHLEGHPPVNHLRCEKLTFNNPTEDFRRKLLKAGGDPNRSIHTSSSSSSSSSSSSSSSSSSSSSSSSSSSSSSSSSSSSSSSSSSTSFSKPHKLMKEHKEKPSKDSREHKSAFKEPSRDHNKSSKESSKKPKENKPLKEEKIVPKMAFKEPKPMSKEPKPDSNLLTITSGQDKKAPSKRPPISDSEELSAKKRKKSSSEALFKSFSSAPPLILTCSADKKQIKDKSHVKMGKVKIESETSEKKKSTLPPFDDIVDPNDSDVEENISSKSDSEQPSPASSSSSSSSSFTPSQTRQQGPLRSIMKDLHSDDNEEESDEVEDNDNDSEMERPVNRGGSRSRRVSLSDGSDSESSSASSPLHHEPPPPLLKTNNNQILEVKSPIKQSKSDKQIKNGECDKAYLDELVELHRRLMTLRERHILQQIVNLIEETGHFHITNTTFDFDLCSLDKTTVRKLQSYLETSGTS
An asterisk follows results filed as active. These rows are one share of the data; count on the stated rates, not on these rows.

entry | AF4-AF9 inh | smiles
1 | 5.7 | C[C@@H]1CN([C@H](C)CO)S(=O)(=O)c2ccc(C#CC3CC3)cc2O[C@@H]1CN(C)CC1CCOCC1
2 | 1.2 | CC(C)(C)[S@@](=O)N1Cc2cc(C(=O)NC3CCC3)nc(-c3cccc(Br)c3)c2[C@H]1CCO
3 | -0.2 | CC(C)n1c(=O)c2ccccc2n1Cc1cn(Cc2cccnc2)nn1
4 | -8.7 | C[C@H]1CN([C@@H](C)CO)C(=O)Cc2cc(NC(=O)Nc3ccccc3)ccc2O[C@@H]1CN(C)S(=O)(=O)c1ccccc1
5 | 1.4 | CCCS(=O)(=O)NC(=O)C1(C)CCCN(C(=O)CSc2ccccc2)C1 (stereo not given)
6 | 0.4 | C[C@@H]1CN([C@H](C)CO)C(=O)Cc2cc(NC(=O)Nc3ccccc3)ccc2O[C@H]1CN(C)S(C)(=O)=O
7 | -1.9 | C[C@@H]1CCCCO[C@H](CN(C)Cc2ccc(C(=O)O)cc2)[C@H](C)CN([C@H](C)CO)C(=O)c2cc(NC(=O)NC3CCCCC3)ccc2O1
8 | -0.9 | C[C@@H]1CN([C@@H](C)CO)C(=O)c2cc(C#CC3(O)CCCC3)cnc2O[C@@H]1CN(C)C(=O)Cc1cccnc1
9 | -4.9 | CN1c2ccc(-c3ccc(C#N)cc3)cc2[C@@H]2[C@@H](CCN2C(=O)CC2CC2)[C@@H]1CO
10 | -17 | Cc1noc(C)c1NC(=O)N(C)C[C@@H]1Oc2c(cccc2N(C)C)C(=O)N([C@H](C)CO)C[C@@H]1C
11 | -13 | COC(=O)C[C@@H]1C[C@@H]2c3cc(NC(=O)C4CCOCC4)ccc3O[C@@H]2[C@@H](CO)O1
12 | -5.1 | COC(=O)C1=C(C)N(Cc2ccc(C(F)(F)F)cc2)C(=NCc2ccc(C(F)(F)F)cc2)NC1c1cccc(C(F)(F)F)c1 (stereo not given)
13 | 0.2 | CCOC(=O)N1CCN(C(=O)C[C@@H]2C[C@@]3(C(=O)OCC)CCCC=C3N(Cc3ccco3)C2=O)CC1
14 | -2.4 | CCCN1C[C@@H](C)[C@@H](OC)CN(C)C(=O)c2cc(NC(=O)CC(F)(F)F)ccc2OC[C@H]1C
15 | 3.2 | CC(C)C#Cc1cnc2c(c1)C(=O)N([C@@H](C)CO)C[C@@H](C)[C@H](CN(C)Cc1ccccc1)O2
16 | -2.5 | C[C@@H]1CN([C@H](C)CO)C(=O)c2cccc(NC(=O)C3CCOCC3)c2O[C@H]1CN(C)S(=O)(=O)c1ccc(F)cc1
17 | 13 | CCCN(C)C[C@@H]1Oc2cc(/C=C/c3ccccc3)ccc2S(=O)(=O)N([C@@H](C)CO)C[C@@H]1C
18 | -80 | Oc1ccc(C[C@H]2CNC(=S)N2CC2CCCN2C[C@H](Cc2ccc(O)cc2)N2C[C@H](Cc3ccccc3)N(CC3CCCCCC3)C2=S)cc1 (stereo not given in full)
19 | -0.4 | O=C(Nc1cc(F)ccc1F)N[C@H]1C=C[C@@H](CC(=O)N2CCc3ccccc3C2)O[C@H]1CO
20 | 3.3 | COc1ccc2c3c(n(C)c2c1)[C@@H](CO)N(C(=O)NC1CCCCC1)CC31CN(C)C1
21 | -1.6 | O=C(Cc1ccccn1)N[C@@H]1C=C[C@@H](CC(=O)N2CCCCC2)O[C@H]1CO
22 | -1.2 | C[C@H]1CNC(=O)c2c(C(=O)N(C)Cc3ccccc3)ncn21
23 | -1.6 | CC(C)C[C@@H]1Cc2[nH][nH]c(=O)c2[C@H](C)O1
24 | -3.2 | C[C@@H]1CN([C@H](C)CO)C(=O)c2cc(C#C[C@@H](C)O)cnc2O[C@H]1CN(C)C(=O)Cc1ccncc1
25 | 2.2 | Nc1[nH]c(C(=O)c2ccccc2)c(-c2ccc3ccccc3c2)c1C(=O)NCc1cccc2ccccc12
26 | -3.3 | CC(C)NC(=O)N(C)C[C@H]1Oc2ccc(NC(=O)Nc3ccccc3)cc2CC(=O)N([C@@H](C)CO)C[C@H]1C
27 | -1.4 | Cc1ccc(S(=O)(=O)N[C@@H]2C=C[C@@H](CC(=O)NCc3ccncn3)O[C@@H]2CO)cc1
28 | -1.6 | C/C=C/c1ccc2c(c1)O[C@H](CN(C)Cc1cncnc1)[C@H](C)CN([C@H](C)CO)S2(=O)=O
29 | 2.3 | C[C@H]1CCCCO[C@H](CN(C)S(=O)(=O)c2ccc(F)cc2)[C@@H](C)CN([C@@H](C)CO)C(=O)c2cc(NS(=O)(=O)c3ccccc3)ccc2O1
30 | 7.8 | Cc1ccc(S(=O)(=O)Nc2ccc3c(c2)C(=O)N([C@@H](C)CO)C[C@@H](C)[C@@H](CN(C)Cc2ccc(Cl)c(Cl)c2)OCCCC[C@@H](C)O3)cc1

Part of the list above in order of count of non-hydrogen atoms, descending.
entry | AF4-AF9 inh | smiles
16 | -2.5 | C[C@@H]1CN([C@H](C)CO)C(=O)c2cccc(NC(=O)C3CCOCC3)c2O[C@H]1CN(C)S(=O)(=O)c1ccc(F)cc1
26 | -3.3 | CC(C)NC(=O)N(C)C[C@H]1Oc2ccc(NC(=O)Nc3ccccc3)cc2CC(=O)N([C@@H](C)CO)C[C@H]1C
10 | -17 | Cc1noc(C)c1NC(=O)N(C)C[C@@H]1Oc2c(cccc2N(C)C)C(=O)N([C@H](C)CO)C[C@@H]1C
2 | 1.2 | CC(C)(C)[S@@](=O)N1Cc2cc(C(=O)NC3CCC3)nc(-c3cccc(Br)c3)c2[C@H]1CCO
5 | 1.4 | CCCS(=O)(=O)NC(=O)C1(C)CCCN(C(=O)CSc2ccccc2)C1 (stereo not given)

Part of the list above, as labelled records:
24	C[C@@H]1CN([C@H](C)CO)C(=O)c2cc(C#C[C@@H](C)O)cnc2O[C@H]1CN(C)C(=O)Cc1ccncc1
  AF4-AF9 inh: -3.2
27	Cc1ccc(S(=O)(=O)N[C@@H]2C=C[C@@H](CC(=O)NCc3ccncn3)O[C@@H]2CO)cc1
  AF4-AF9 inh: -1.4
3	CC(C)n1c(=O)c2ccccc2n1Cc1cn(Cc2cccnc2)nn1
  AF4-AF9 inh: -0.2
2	CC(C)(C)[S@@](=O)N1Cc2cc(C(=O)NC3CCC3)nc(-c3cccc(Br)c3)c2[C@H]1CCO
  AF4-AF9 inh: 1.2

Next section.
entry | AF4-AF9 inh | smiles
31 | 0.7 | O=C(c1ccccn1)N1CC(=O)N2[C@H](CO)[C@@H](c3ccc(C#Cc4ccccc4)cc3)[C@H]2C1
32 | -17 | COc1ccccc1S(=O)(=O)N[C@@H]1CC[C@@H](CC(=O)N2CCCCC2)O[C@H]1CO
33 | -0.7 | O=C(Cn1cc(COc2ccc(Cl)c(Cl)c2)nn1)NS(=O)(=O)c1ccccc1C(F)(F)F
34 | -0.1 | C[C@H]1CN([C@@H](C)CO)C(=O)c2cc(NS(=O)(=O)c3ccc(Cl)cc3)ccc2O[C@H]1CN(C)Cc1ccc(Cl)c(Cl)c1
35 | -0.4 | C[C@@H]1CN([C@H](C)CO)C(=O)c2cc(NC(=O)Nc3ccc(F)cc3)ccc2O[C@@H]1CN(C)C(=O)NC1CCCCC1
36 | 5.1 | C[C@H](CO)N1C[C@H](C)[C@@H](CN(C)C(=O)Nc2cccc3ccccc23)Oc2ccc(NC(=O)Nc3ccc4c(c3)OCO4)cc2C1=O
37 | 0.0 | CCc1cnc(N2[C@@H](C#N)[C@@H](c3ccc(C4=CCCC4)cc3)[C@@H]2CO)s1
38 | 3.3 | CC=Cc1ccc2n(c1=O)C[C@H]1[C@H](CO)[C@@H](C(=O)NCc3cccc(OC)c3)N[C@@H]21 (mixture of isomers)
39 | -8.7 | CO[C@H]1CN(C)C(=O)c2cc(NC(=O)Nc3ccc(F)cc3)ccc2OC[C@H](C)NC[C@@H]1C
40 | 13 | O=C(NCC[C@@H]1CC[C@H](NC(=O)c2cnccn2)[C@@H](CO)O1)Nc1ccc(Cl)cc1
41 | -2.0 | C[C@@H]1CN([C@H](C)CO)C(=O)c2cccc(NS(=O)(=O)c3ccc(Cl)cc3)c2O[C@@H]1CN(C)C(=O)Nc1ccc2c(c1)OCO2
42 | -2.6 | COc1cccc(C#Cc2cnc3c(c2)C(=O)N([C@H](C)CO)C[C@@H](C)[C@@H](CN(C)C(C)=O)O3)c1
43 | -0.8 | Cc1ccc(S(=O)(=O)N(C)C[C@@H]2OCCCC[C@H](C)Oc3ccc(NC(=O)c4ccncc4)cc3C(=O)N([C@H](C)CO)C[C@H]2C)cc1
44 | 12 | C[C@@H]1CN([C@@H](C)CO)S(=O)(=O)c2ccc(C3=CCCCC3)cc2O[C@H]1CN(C)Cc1ccncc1
45 | 4.2 | Cc1ccc(S(=O)(=O)N(C)C[C@H]2OCCCC[C@H](C)Oc3ccc(NC(=O)CCCN(C)C)cc3C(=O)N([C@@H](C)CO)C[C@H]2C)cc1
46 | 2.4 | CNC(=O)C[C@H]1CC[C@H]2[C@@H](COC[C@H](O)CN2C(=O)c2ccccn2)O1
47 | 1.6 | OC(c1ccc(-c2ccccc2)cc1)c1ncc(-c2ccccc2F)[nH]1 (stereo not given)
48 | -5.9 | CC(C)(C)NC(=O)C(c1ccncc1)n1c(-c2ccc(C(F)(F)F)cc2)nc2ccccc21 (stereo not given)
49 | 2.3 | C[C@H](CO)N1C[C@H](C)[C@H](CN(C)C(=O)Nc2ccc(C(F)(F)F)cc2)Oc2ccc(N(C)C)cc2CC1=O
50 | 6.4 | CC(=O)Nc1ccc(CN(C)c2c(C)nc3ccc(C(=O)N(C)Cc4ccccc4)cn23)cc1
51 | -0.2 | CC(C)n1nnnc1C1c2ccccc2C(=O)N1C1CC1 (stereo not given)
52 | -4.3 | Cc1ccc(Cn2cc(CN3CC(N4CCCCC4)CS3(=O)=O)nn2)cc1 (stereo not given)
53 | -1.5 | O=C1CN(CN2CCCCC2)C(=O)CN1CN1CCCCC1
54 | -2.2 | O=C(C[C@H]1C=C[C@H](NC(=O)c2cccnc2)[C@H](CO)O1)NCc1ccc(Cl)c(Cl)c1
55 | -3.1 | COc1ccc(S(=O)(=O)Nc2ccc3c(c2)C(=O)N([C@@H](C)CO)C[C@H](C)[C@@H](CN(C)C(=O)Nc2ccc(C(F)(F)F)cc2)O3)cc1
56 | -1.5 | C[C@@H]1CN([C@H](C)CO)C(=O)c2cccc(NS(=O)(=O)c3ccc(Cl)cc3)c2O[C@H]1CN(C)C(=O)Nc1ccc(C(F)(F)F)cc1
57 | 1.5 | CN1C(=O)c2cc(NC(=O)c3cccs3)ccc2OC[C@H]2O[C@H](CC(=O)N3CCOCC3)CC[C@H]21
58 | -6.0 | COc1cccc(-c2cccc(-c3nc(C(=O)O)cc4c3[C@@H](CCO)N(S(=O)C(C)(C)C)C4)c2)c1 (stereo not given in full)
59 | 0.9 | C[C@@H]1CCCCO[C@H](CN(C)S(=O)(=O)c2cccs2)[C@@H](C)CN([C@@H](C)CO)C(=O)c2cc(NC(=O)CCC(F)(F)F)ccc2O1
60 | 3.3 | COC(=O)[C@]12C[C@H](CC(=O)NCCc3ccccc3OC)C(=O)N(Cc3ccccc3)C1=C[C@H](C(C)(C)C)O[C@@H]2C
61 | -0.6 | COCCOC(=O)N1C(=O)[C@@]2(c3ccccc31)[C@H](C(=O)Nc1nc3ccccc3s1)[C@H]1C(=O)O[C@H](c3ccccc3)[C@H](c3ccccc3)N1[C@@H]2c1ccc(OCCO)cc1
62 | 0.2 | C[C@H]1CN([C@@H](C)CO)C(=O)c2cc(NC(=O)c3ccncc3)ccc2O[C@H]1CN(C)C(=O)Nc1cccc2ccccc12
63 | -3.2 | C[C@H]1CN([C@@H](C)CO)C(=O)Cc2cc(NC(=O)NC3CCCCC3)ccc2O[C@@H]1CN(C)Cc1ccc2c(c1)OCO2
64 | 0.1 | Cc1ccccc1S(=O)(=O)N1[C@H](CO)[C@@H](c2ccc(-c3ccc(F)cc3)cc2)[C@@H]1C#N
65 | -2.5 | Cc1noc(C)c1S(=O)(=O)Nc1ccc2c(c1)CC(=O)N([C@@H](C)CO)C[C@@H](C)[C@@H](CN(C)Cc1ccc(C(=O)O)cc1)O2
66 | 4.8 | COc1ccc(NC(=O)N(C)C[C@H]2OCCCC[C@@H](C)Oc3ccc(NC(=O)Cc4ccccc4)cc3C(=O)N([C@@H](C)CO)C[C@H]2C)cc1
67 | -1.7 | CN(C)CCNC(=O)c1cccc2nc3cccc(F)c3nc12
68 | -0.4 | CC(C)NC(=O)N(C)C[C@H]1OCCCC[C@@H](C)Oc2ccc(NS(=O)(=O)c3ccc(F)cc3)cc2C(=O)N([C@H](C)CO)C[C@H]1C
69 | -1.4 | COC(=O)[C@H](Cc1ccccc1)N1CC(C)(OC)O[C@@H](Cc2ccccc2)[C@H]1/C=C/C1CC1 (stereo not given in full)
70 | 6.0 | COc1ccccc1-c1cnc(C(O)c2c(C)cccc2C)[nH]1 (stereo not given)
71 | -0.4 | Cc1ccc(S(=O)(=O)N(C)C[C@H]2OCCCC[C@H](C)Oc3ccc(NS(=O)(=O)c4c(C)noc4C)cc3C(=O)N([C@@H](C)CO)C[C@@H]2C)cc1
72 | -1.7 | COc1ccc(NC(=O)Nc2ccc3c(c2)C(=O)N([C@@H](C)CO)C[C@H](C)[C@H](CN(C)S(=O)(=O)c2cn(C)cn2)O3)cc1
73 | -2.1 | Nc1ncnc2c1ccn2[C@H]1CN(Cc2ccc3c(c2)OCO3)C[C@@H](CO)O1
74 | -1.7 | COc1ccc(S(=O)(=O)N(C)C[C@H]2Oc3ccc(NC(=O)Nc4c(C)noc4C)cc3CC(=O)N([C@@H](C)CO)C[C@@H]2C)cc1
75 | 0.5 | CCOC(=O)C1(C)CCCN1C(=O)c1ccc(C)cc1 (stereo not given)
76 | 9.9 | Cc1noc(C)c1NC(=O)Nc1ccc2c(c1)C(=O)N([C@@H](C)CO)C[C@H](C)[C@@H](CN(C)C(=O)Nc1ccc(F)cc1)O2
77 | 4.7 | COc1ccc2c3c(n(C)c2c1)[C@@H](CO)N(S(=O)(=O)c1ccc(C)cc1)CC31CCN(Cc2cccnc2)CC1
78 | 1.0 | Cc1ccc(S(=O)(=O)N(C)C[C@@H]2OCCCC[C@H](C)Oc3ccc(NS(C)(=O)=O)cc3C(=O)N([C@H](C)CO)C[C@H]2C)cc1
79 | 9.7 | Cc1ccc(S(=O)(=O)N(C)C[C@@H]2Oc3ccc(NS(=O)(=O)c4cccs4)cc3C(=O)N([C@@H](C)CO)C[C@@H]2C)cc1
80 | -0.5 | CCC(=O)N1CC(=O)N2[C@H](CO)[C@H](c3ccc(-c4ccccc4C)cc3)[C@@H]2C1
